eIF4H FP inh: human eIF4H binding inhibitors, primary screen, translation initiation inhibitor project, biochemical, uHTS, fluorescence polarization | inhibition, % at 35 µM | Eukaryotic translation initiation factor 4H (Homo sapiens), Q15056 | eIF4H fluorescence polarization binding assay | hit rate 0.94% among 290,000 | AID 2012, 2009;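 active = 50% or more with normal probe brightness, or confirmed in later tests; about a fifth of its hits are not listed in these tables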;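 note: calls also rest on retests at 20 µM and on dose response follow-up; 0% = protein and probe with vehicle and 100% = probe without protein; strong numbers were not always called active; many hits fall short of the cut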
PABP FP inh: PABP poly(A) RNA binding inhibitors, primary screen, biochemical, fluorescence polarization, uHTS; Polyadenylate-binding protein 1 (Homo sapiens), P11940; inhibition, % at 35 µM; hit rate 1% among 290,000;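 active = 50% or more with normal probe brightness, or confirmed in later tests; about a fifth of its hits are not listed in these tables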;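 note: calls also rest on retests at 20 µM and on dose response follow-up; controls were probe without protein and protein plus probe with vehicle; some compounds called inactive have numbers as strong as hits; many hits fall short of the cut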
Target sequence (P11940 whole entry, looked up): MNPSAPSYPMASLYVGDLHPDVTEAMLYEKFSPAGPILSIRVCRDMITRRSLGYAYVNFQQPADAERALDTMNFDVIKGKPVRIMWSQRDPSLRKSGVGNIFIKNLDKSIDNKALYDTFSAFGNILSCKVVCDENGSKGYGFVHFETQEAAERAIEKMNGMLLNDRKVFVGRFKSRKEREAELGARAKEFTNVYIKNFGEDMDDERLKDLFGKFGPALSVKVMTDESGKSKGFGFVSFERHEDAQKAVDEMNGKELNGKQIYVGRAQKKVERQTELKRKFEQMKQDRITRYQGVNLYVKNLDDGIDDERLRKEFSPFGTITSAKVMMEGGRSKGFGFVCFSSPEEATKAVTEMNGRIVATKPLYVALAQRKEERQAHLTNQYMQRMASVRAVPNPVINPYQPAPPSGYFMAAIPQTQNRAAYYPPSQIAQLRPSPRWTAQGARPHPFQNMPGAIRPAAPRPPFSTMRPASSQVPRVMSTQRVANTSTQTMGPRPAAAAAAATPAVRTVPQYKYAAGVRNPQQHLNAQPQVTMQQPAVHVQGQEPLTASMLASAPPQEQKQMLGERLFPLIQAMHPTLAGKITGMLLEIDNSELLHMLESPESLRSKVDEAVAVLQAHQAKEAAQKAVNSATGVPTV
HIV Env fusion: inhibitors of HIV-1 Env-driven cell-cell fusion, primary screen, HeLa-JRFL effector, CEM21 target cells, luciferase; inhibition, % at 12.3 µM; hit rate 1.1% among 360,000; AID 651610, 2012;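 active = mean replicate inhibition score of at least 50 and every replicate individually at or above 50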;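 note: 0% = plate neutral controls and 100% = maraviroc near 300 nM; one replicate is shown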
MT1-MMP act inh: blockers of MT1-MMP proenzyme processing, primary screen, HT1080 RFP-PRO-GFP cells, GFP/RFP fluorescence; GFP/RFP ratio fluorescence, overnight; percent of plate control window, DMSO zero; GFP/RFP ratio change, % at 20 µM; Matrix metalloproteinase-14 (Homo sapiens), P50281; hit rate 0.061% among 360,000; AID 651647, 2012;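 active = GFP/RFP ratio change of at least 30% with cell ATP level not reduced by more than half and red fluorescence within 50% of control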; note: strong numbers were not always called active
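Assay system: HT1080 RFP-PRO-GFP cells. Benchmarks: DMSO vehicle wells and RFP-L50D-GFP reporter cell wells. Times: overnight cell settling, then overnight compound exposure, 37 °C, 5% CO2. Compound: 20 µM single dose, 1% DMSO. Read-out basis: GFP/RFP fluorescence ratio.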
Rce1 inh: yeast Rce1p protease inhibitors, primary screen, biochemical, fluorescence, cell-free homogeneous; yeast membranes, quenched prenylated peptide cleavage fluorescence; calls only; CAAX prenyl protease 2 (Saccharomyces cerevisiae (strain ATCC 204508 / S288c)), Q03530; hit rate 0.27% among 290,000;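 active = fall in fluorescence gain of 50% or more versus controls, with final raw signal at or below 3038400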;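 note: plate controls were neutral control wells for no effect and wells lacking membranes for full effect; tested at 10 µM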
Yeast UUG start: modulators of yeast start codon fidelity, primary screen, whole organism, S. cerevisiae, single point, plate reader. activity score, % at 18.7 µM. hit rate 0.13% among 350,000. S. cerevisiae UUG-firefly luciferase reporter, luminescence/redox ratio;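 active = replicate mean at a twofold rise or more, about +100% in these data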;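 note: firefly luciferase made from a UUG start codon reports start codon fidelity; reporter light over untreated wells divided by growth signal over untreated wells; some hits fall short of that in this replicate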
CSC inhib: cancer stem cell viability inhibitors, primary screen, luminescence; cancer stem cell-like cells viability; inhibition, % at 7.5 µM; hit rate 1.1% among 300,000; AID 2717, 2010;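 active = mean at 75% or more and at least half the replicates too; tested in HMLE shEcad cells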;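 note: 0% = median of negative and 100% = median of positive control wells; the first replicate is given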
eIF4H FP inh retest: further read-out of eIF4H FP inh, marked with its call; inhibition, %; compound at 20 µM; confirmation average;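 mean of two retest wells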
PABP FP inh retest: also measured in PABP FP inh; calls as there; inhibition, %; compound at 20 µM; confirmation repeats;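 mean of two retest wells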
MT1-MMP act inh RFP: second read-out of MT1-MMP act inh, no call of its own (marks repeat the call); RFP signal change, %; measured here: RFP expression control read;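 0 = vehicle wells; hits needed this value within 50% of zero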
Starred values were filed as active, the others as inactive; i = inactive; . = no result given; & = joins results of further samples; [ ] = remark or other dose. Not all compounds are listed; count on the stated rates, not on these rows.

SMILES | eIF4H FP inh | PABP FP inh | HIV Env fusion | MT1-MMP act inh | MT1-MMP act inh RFP | Rce1 inh | Yeast UUG start | CSC inhib | others
COc1cccc(-c2nc(NC(C)(C)C)c3ccccc3n2)c1O | -20 | -4 | 48 | -6 | -3 | i | -4 | 1
Cc1ccc(-c2cc(C(=O)Nc3ccc(S(=O)(=O)Nc4ncccn4)cc3)c3ccccc3n2)cc1 | -4 | -4 | 12 | 1 | 0 | i | -11 | -25
Cc1cccc(NC2=C(Cl)C(=O)OC2OC(C)C)c1 (configuration not stated) | 2 | -4 | -14 | 1 | -5 | i | . | 8
O=C(O)c1ccc(C2SCC(=O)N2Cc2ccccc2)cc1 (configuration not stated) | -9 | -2 | . | 8 | 4 | i | -4 | -2
CC1=NN(c2ccccc2)C(=O)C1C(=O)c1ccccc1 (configuration not stated) | -3 | -4 | 20 | 1 | 4 | i | . | -6
COc1ccccc1NC(=O)C(=O)/C=C(\O)c1ccccc1 | 6 | 4 | -2 | 0 | 5 | i | . | -5
C=CCC1NS(=O)(=O)O[C@H](CCCC)[C@@H]1O (some centres not stated) | 5 | 5 | -8 | -1 | 5 | i | -25 | -21
CN(C(=O)CSc1ncnc2sccc12)c1c(N)n(Cc2ccccc2)c(=O)[nH]c1=O | -5 | -2 | -5 | 0 | 2 | . | . | 6
CCOC(=O)C1CCCN(C(=O)c2cc3cc(OC)c(OC)cc3[nH]2)C1 (configuration not stated) | -16 | -7 | 3 | 0 | 1 | i | -5 | 1
Cc1ccc(OC(=O)c2ccc(S(=O)(=O)N(C)C)cc2)c(-n2nc3ccccc3n2)c1 | 0 | -9 | -63 | 8 | 2 | i | -18 | 3
O=C(O)c1ccc2c(c1)C1C=CCC1C(c1ccncc1)N2 (configuration not stated) | 97* | 83* | -2 | -2 | 3 | i | -6 | -3
Cc1ccc2c(c1)N(C(=O)CCC(=O)NCCCN1CCC(Cc3ccccc3)CC1)CCO2 | -1 | 7 | 17 | -3 | 0 | i | -12 | 3
Cc1cc(C(=O)OCC(=O)Nc2ncc(C(F)(F)F)cc2Cl)c(C)o1 | 16 | 17 | . | -5 | 2 | i | . | 9
CSc1ncnc2c1ncn2CCCNCc1ccco1 | . | . | -2 | 2 | 5 | . | -13 | .
Nc1ncnc2c1CCC2 | -7 | 4 | . | 5 | 6 | i | -11 | .
CCOc1ccccc1CN1CCN(Cc2nc3c(s2)CCCC3)CC1CCO (configuration not stated) | -2 | 1 | -41 | 1 | 3 | i | . | 6
Cc1cc(C)n(C(=O)/C(C#N)=N\Nc2ccccc2[N+](=O)[O-])n1 | 12 | -1 | 18 | 0 | 1 | i | . | -9
COc1cccc(C(=O)NNC(=O)C(=O)Nc2ccc(C)cc2)c1 | 3 | -3 | -8 | 8 | 9 | i | 2 | .
COc1ccc(NC(=O)c2sc3nc(C)cc(C)c3c2N)cc1 | 2 | -3 | -52 | 3 | 4 | i | -3 | 4
CSc1ccc(S(=O)(=O)N2CCC(C(=O)NCCc3ccccc3)CC2)cc1 | 1 | 0 | 7 | 0 | -3 | i | -11 | 64
O=C(CCSc1nnc2ccccn12)Nc1ccc2c(c1)OCO2 | 4 | 0 | -5 | -1 | 3 | i | 0 | -4
COc1cc2[nH]c(C(=O)N3CCN(c4ccc(F)cc4)CC3)cc2c(OC)c1OC | 5 | -6 | -38 | 0 | -2 | i | -3 | -12
CC1CCC/C(=N\NC(=S)Nc2ccccc2)C1 (configuration not stated) | -8 | 1 | 9 | 3 | 4 | i | 2 | -12
CCS(=O)(=O)c1ccc(-c2cccc(NC(=O)COc3ccccc3)c2)nn1 | -22 | 4 | -7 | 2 | -2 | i | -18 | -18
COc1ccc(/C=C2\Oc3ccccc3C2=O)cc1 | . | . | -299 | 0 | -2 | . | -42 | .

Structures shown so far that have an NH in an aromatic ring:
SMILES | eIF4H FP inh | PABP FP inh | HIV Env fusion | MT1-MMP act inh | MT1-MMP act inh RFP | Rce1 inh | Yeast UUG start | CSC inhib | others
CN(C(=O)CSc1ncnc2sccc12)c1c(N)n(Cc2ccccc2)c(=O)[nH]c1=O | -5 | -2 | -5 | 0 | 2 | . | . | 6
CCOC(=O)C1CCCN(C(=O)c2cc3cc(OC)c(OC)cc3[nH]2)C1 (configuration not stated) | -16 | -7 | 3 | 0 | 1 | i | -5 | 1
COc1cc2[nH]c(C(=O)N3CCN(c4ccc(F)cc4)CC3)cc2c(OC)c1OC | 5 | -6 | -38 | 0 | -2 | i | -3 | -12

The list goes on.
SMILES | eIF4H FP inh | PABP FP inh | HIV Env fusion | MT1-MMP act inh | MT1-MMP act inh RFP | Rce1 inh | Yeast UUG start | CSC inhib | others
COc1cccc(C2CC(c3ccc(NS(C)(=O)=O)cc3)=NN2C(=O)c2ccccc2)c1OC (configuration not stated) | 8 | 5 | 12 | 1 | -2 | i | . | 10
Cc1noc(C)c1COc1ccc(CC(=O)NCCc2ccccn2)cc1 | 2 | -9 | -5 | -3 | -4 | i | -7 | 2
CC(=O)N(C(C)=O)S(=O)(=O)c1ccc(N=NN2CCOCC2)cc1 | -2 | -13 | 8 | -4 | 4 | i | . | -9
COc1ccc(/C=N/NC(=O)CSCC(=O)Nc2ccccc2)cc1 | 2 | 8 | 4 | 1 | 2 | i | . | -9
COc1nc(-c2ccc(Cl)cc2)ccc1-c1noc(-c2cccs2)n1 | -2 | 5 | -100 | -3 | 4 | . | -21 | -11
COc1ccc(CN(C(=O)c2cccs2)C(C(=O)NC2CCCCC2)c2ccc3ncccc3c2)cc1 (configuration not stated) | -6 | -2 | . | -8 | -5 | i | . | -3
O=C(CSc1nc2ccccc2n1Cc1ccccc1)N/N=C/c1ccco1 | 0 | -20 | 18 | 9 | -4 | i | -19 | 9
CC1=C/C(=C\c2ccc(Br)o2)C(=O)O1 | 86 | -2 | 4 | 1 | 6 | i | . | 0 | eIF4H FP inh retest=-13;PABP FP inh retest=5
CCN(Cc1ccccc1)C(=O)CN1C(=O)NC(CC)(c2ccc(F)cc2)C1=O (configuration not stated) | -1 | 9 | 6 | -2 | 2 | i | 6 | -17
CCOC(=O)C1CCN(C(=O)CS(=O)(=O)Cc2nc(-c3ccccc3Cl)oc2C)CC1 | -3 | 0 | -5 | 3 | -2 | i | -15 | -10
O=C(CSc1nc2cc(S(=O)(=O)N3CCOCC3)ccc2o1)NC1CCCc2ccccc21 (configuration not stated) | -7 | 17 | -32 | 1 | -1 | i | -13 | -3
COc1ccc(C(=O)OCC(=O)NCc2ccco2)cc1S(=O)(=O)N1CCN(c2cccc(Cl)c2)CC1 | -2 | 8 | . | 1 | -8 | i | -13 | 0
Cc1cccn2c(=O)c3cc(C#N)c(=O)n(-c4c(C)n(C)n(-c5ccccc5)c4=O)c3nc12 | 7 | 13 | -9 | -1 | 2 | . | -13 | 7
CCN(Cc1nc(-c2ccc(OC)cc2)no1)C(=O)c1ccc2c(c1)OCO2 | -5 | -7 | -5 | 0 | -1 | i | -8 | .
CN(Cc1cn(C)nc1-c1ccc(Oc2ccccc2)cc1)C1CCOC1 (configuration not stated) | -8 | 5 | -8 | 3 | 1 | i | -13 | 10
CC(C)CN1CCC(Oc2cccc(C(=O)NCCc3ccccc3)c2)CC1 | 13 | -3 | . | 1 | 1 | i | 4 | -7
Cc1ccc(CN2CCN(Cc3ccco3)CC2)cc1 | 0 | 6 | -8 | 1 | 2 | i | 5 | -7
CCOc1cc(C(=O)N(C)Cc2cc3ccccc3[nH]c2=O)cc(OCC)c1OCC | 1 | -10 | . | 3 | 5 | i | 1 | -10
Cc1cc(C)n(-c2nc(SCC(=O)O)c3c4c(sc3n2)CCCC4)n1 | 2 | 9 | . | . | . | i | . | 13
O=C(NCc1ccccc1)C(=O)NCC1OCCN1C(=O)c1ccc(Cl)cc1 (configuration not stated) | 0 | -3 | 8 | -3 | 0 | i | . | .
O=C(NCC(c1ccco1)N1CCCC1)c1cccc(NS(=O)(=O)c2ccc(Br)cc2)c1 (configuration not stated) | . | . | 9 | 0 | -1 | i | 9 | -11
CCOC(=O)C1(C)CCN1C(=O)c1cc2ccccc2s1 (configuration not stated) | . | . | -19 | 1 | 4 | . | 10 | .
CCCc1[nH]nc2c1C(c1cc(OC)cc(OC)c1)C(C#N)=C(N)O2 (configuration not stated) | -4 | 10 | 5 | 6 | 6 | i | -9 | 14
COc1ccccc1CNC(=O)COC(=O)[C@H](Cc1c[nH]c2ccccc12)NC(=O)c1cccs1 | -7 | -11 | -13 | -2 | 3 | i | . | .
COC(=O)Cn1ccc(N(C)C)c(C#N)c1=O | -2 | -9 | . | 4 | 3 | i | -9 | 2
Following part.
SMILES | eIF4H FP inh | PABP FP inh | HIV Env fusion | MT1-MMP act inh | MT1-MMP act inh RFP | Rce1 inh | Yeast UUG start | CSC inhib | others
COC(=O)c1ccc(NC(=O)COc2cccc(-n3cnnn3)c2)cc1 | -3 | -10 | -9 | 0 | -3 | i | -4 | -10
Cc1cccc(-c2nc(CS(=O)CC(=O)NCc3ccco3)c(C)o2)c1 (configuration not stated) | -8 | -3 | 2 | -1 | 1 | i | . | -12
CC(C)c1nnc(NC(=O)CSc2nnc(NC(=O)c3c(F)cccc3F)s2)s1 | -8 | 14 | -10 | -3 | 2 | . | -8 | 13
COc1ccc2nc(SCC(=O)NCc3ccc(OC)c(OC)c3)[nH]c2c1 | 0 | 1 | 15 | 3 | -8 | i | -14 | -6
CCn1nnnc1SCC(=O)NCc1ccc2c(c1)OCO2 | 1 | 33 | . | 1 | 3 | i | -12 | .
CC(=O)n1cc([C@@H]2C=C(C(=O)Nc3ccccc3)O[C@H](OCCCCO)C2)c2ccccc21 | 2 | -4 | 0[16.7 µM] | -4 | 3 | i | -15&-18 | 24
O=C(Nc1cccs1)Nc1c(F)c(F)c(F)c(F)c1F | 53 | 15 | . | -10 | -7 | i | . | . | eIF4H FP inh retest=-4;PABP FP inh retest=2
Cc1cc(C)nc(Nc2ccccc2Br)n1 | -4 | -2 | -44 | 1 | 1 | i | -16 | -5

As a short view, six of the compounds above.
SMILES | eIF4H FP inh | PABP FP inh | HIV Env fusion | MT1-MMP act inh | MT1-MMP act inh RFP | Rce1 inh | Yeast UUG start | CSC inhib | others
CC(C)c1nnc(NC(=O)CSc2nnc(NC(=O)c3c(F)cccc3F)s2)s1 | -8 | 14 | -10 | -3 | 2 | . | -8 | 13
COc1ccc2nc(SCC(=O)NCc3ccc(OC)c(OC)c3)[nH]c2c1 | 0 | 1 | 15 | 3 | -8 | i | -14 | -6
CCn1nnnc1SCC(=O)NCc1ccc2c(c1)OCO2 | 1 | 33 | . | 1 | 3 | i | -12 | .
CC(=O)n1cc([C@@H]2C=C(C(=O)Nc3ccccc3)O[C@H](OCCCCO)C2)c2ccccc21 | 2 | -4 | 0[16.7 µM] | -4 | 3 | i | -15&-18 | 24
O=C(Nc1cccs1)Nc1c(F)c(F)c(F)c(F)c1F | 53 | 15 | . | -10 | -7 | i | . | . | eIF4H FP inh retest=-4;PABP FP inh retest=2
Cc1cc(C)nc(Nc2ccccc2Br)n1 | -4 | -2 | -44 | 1 | 1 | i | -16 | -5

Assay outcomes (PubChem)
